VACV Venus inh: qHTS for Stage-Specific Inhibitors of Vaccinia Orthopoxvirus: Venus Reporter Primary qHTS; Vaccinia virus Venus reporter expression, fluorescence; Potency, µM (highest dose often 36.5 µM), for the others: top-dose activity change, negative = inhibition, actives largely listed as inhibitors; 330,000 compounds, 0.46% hits; AID 720580, 2013; active means well fitted inhibition curve with a large enough effect; inconclusive means small, poorly fitted or top-dose-only effect; inactive means no such curve, though single readings can be large or run the other way; tested in A549 cells; also: nearly all actives have a fitted effect of over 30% in size; inactives centre near -10
VACV mCherry inh: qHTS for Stage-Specific Inhibitors of Vaccinia Orthopoxvirus: mCherry Reporter Primary qHTS. Vaccinia virus mCherry reporter infection, fluorescence; about a quarter of the inactives have no number. Potency, µM (doses to about 36.5 µM), inactives show at the top dose activity change, negative = inhibition, most hits filed as inhibitors. 310,000 compounds, 0.63% hits. AID 720579, 2013; active = well fitted inhibition curve with a large enough effect; inconclusive = small, poorly fitted or top-dose-only effect; inactive = no such curve, though single readings can be large or run the other way; tested in A549 cells; also: nearly all actives have a fitted effect of over 35% in size; inactives centre near -10
Starred values were filed as active, the others as inactive; i = inactive; ? = inconclusive; nt = not tested or not shown; & = joins results of further samples; [ ] = another dose, or the depositor's remark. % is scaled to controls: 0 for no effect and ±100 for the full control effect; potency is read from the fitted curve at half-maximal effect.

smiles	VACV mCherry inh	VACV Venus inh
Cc1cccc(NS(=O)(=O)c2ccc(NS(=O)(=O)c3cccs3)cc2)c1	-13%	-7%
CCCCc1ccc(NC(=O)Cn2c(=O)c(N3CCCCC3)c(N)n(C)c2=O)cc1	-17%	13%
COc1ccc(/C=N/NC(=O)CC(=O)NCc2cccnc2)cc1	-17%[1.46 µM]	-9%
COc1cc2ccccc2cc1C(=O)Nc1ccc(N2CCOCC2)cc1	-10%	-1%
CCCCOC1CC(c2ccc(OCc3ccc(OC)cc3)c(OC)c2)N(C)O1 (stereo unspecified)	i	-15%
O=C1c2ccccc2C(=O)N1CN(C(=O)COc1ccccc1)c1ccc(F)cc1	-7%	-9%
COc1cc(C(=O)N2CCOC23CCN(Cc2ccccc2)CC3)cc(OC)c1OC	i	-3%
CN(C(=O)c1cccc(NC(=O)Cc2ccc(NC(=O)C3CCCN(C(=O)C4CC4)C3)cc2)c1)C1CC1 (stereo unspecified)	-10%	-3%
O=S(=O)(NCc1csc(-c2ccccc2)n1)c1cccc(F)c1	-12%	-4%
O=c1c2ccccc2nc(SCC2CCCCO2)n1-c1ccccc1 (stereo unspecified)	i	-12%
COc1cccc(Nc2nc3cc(C)ccc3nc2NS(=O)(=O)c2ccc(Cl)cc2)c1	?	?
CC(O)C(C)OC(=O)[C@@H]1C[C@@H]2c3cccc4c3c(cn4C(C)C)C[C@H]2N(C)C1 (stereo partly specified)	?	?

(list continues)
smiles	VACV mCherry inh	VACV Venus inh
CCOc1ccc(CNc2ccc(S(N)(=O)=O)cc2)cc1	-3%	-21%
CCOc1ccc(Nc2ncnc3c2cnn3Cc2ccccc2)cc1	-9%	-18%
O=C(Cn1c(=O)n(CC2CCC(C(=O)NCCc3ccccc3)CC2)c(=O)c2ccccc21)Nc1cccc(F)c1 (stereo unspecified)	?	?
O=c1c2sc3ccccc3c2n(Cc2ccccc2)c(=O)n1CCc1ccccc1	-5%	-11%
CC[C@H](C)[C@@H]1NC(=O)[C@H]([C@@H](C)CC)NC(=O)[C@@H](CC(C)C)NC(=O)[C@H](Cc2ccccc2)NC(=O)[C@H](Cc2ccccc2)NC(=O)[C@@H]2CCCN2C(=O)[C@@H]2CCCN2C(=O)[C@H](C(C)C)NC(=O)[C@H](CC(C)C)NC1=O	-18%	?
CN(C)CCNC(=O)c1ccc(CS(=O)(=O)c2c(Cl)cccc2Cl)o1	-11%	6%
COc1ccc(CCNC(=O)c2c(-c3ccccc3)noc2C)cc1OC	i	-6%
Cn1nc(C(=O)NCCN2Cc3ccccc3OC(c3ccsc3)C2)c2ccccc2c1=O (stereo unspecified)	-8%	-3%
CC(C)N(Cc1ccccc1)S(=O)(=O)c1ccc(-n2cccn2)cc1	?	-16%
CCOC(=O)N1CCN(C(=O)C2CCCN(c3nc4ccc(OCC)cc4s3)C2)CC1 (stereo unspecified)	14%	2%
Cc1ccc(C)c(NC(=O)CCc2c(C)nn(-c3ccc(N4CCCC4)nn3)c2C)c1	1%	-10%
Cn1nc(CC(=O)Nc2ccc3c(c2)OCCO3)c2ccccc2c1=O	nt	-30%

New compounds follow:
smiles	VACV mCherry inh	VACV Venus inh
Cc1ccccc1OC/C(O)=C(\C#N)c1nc2ccccc2[nH]1	i	2%
CCCc1cc(C(=O)Nc2cccc3ccccc23)n(C)n1	-13%	-3%
CCCCNC(=O)[C@H](CSCc1ccccc1)N1Cc2ccccc2C1=O	i	-4%
c1ccc(CCCCc2ccncc2)cc1	-22%	-8%
CCOC(=O)c1ccccc1NC(=O)CSc1nc(N)cc(=O)[nH]1	9%	-4%
Cc1nn(CC(=O)Nc2ccc(Cl)cc2)c(=O)c2cc(-c3ccccc3)nn12	-7%	-4%
CC(C)N(C(=O)Nc1ccc2nccnc2c1)C(C)C	nt	-6%
COc1ccc(CC2(CO)CCN(C(C)COc3ccccc3)CC2)cc1 (stereo unspecified)	?	-30%
COC[C@H]1OC(=O)c2coc3c2[C@@]1(C)C1=C(C3=O)C2CCC(=O)[C@@]2(C)C[C@H]1OC(C)=O (stereo partly specified)	-11%	17%&-17%
CS(=O)(=O)c1ccc(-c2sc3ccccc3c2C#CCCO)cc1	?	?
O=C(/C=C/Nc1ccc(F)cc1F)c1ccco1	-24%	-21%
COc1ccc(C(=O)NC(=S)N2CC(C)OC(C)C2)cc1 (stereo unspecified)	-9%	-7%

Sorted by formula weight (descending): some entries from above.
smiles	VACV mCherry inh	VACV Venus inh
COc1ccc(CC2(CO)CCN(C(C)COc3ccccc3)CC2)cc1 (stereo unspecified)	?	-30%
CCOC(=O)c1ccccc1NC(=O)CSc1nc(N)cc(=O)[nH]1	9%	-4%
CC(C)N(C(=O)Nc1ccc2nccnc2c1)C(C)C	nt	-6%

Further records:
smiles	VACV mCherry inh	VACV Venus inh
COCCNC(=O)C1CCCN(Cc2ccccc2-c2ccccc2)CC1 (stereo unspecified)	12%	11%
CCN(CC(=O)NCc1ccc(F)cc1)CC(=O)Nc1ccccc1-c1ccccc1	-8%	-10%
COc1ccc(C2SCC(=O)Nc3c2c(C)nn3-c2ccccc2)cc1 (stereo unspecified)	nt	-4%
O=C(OCc1ccccc1)N1CCC2CC1c1cc(-c3ccc4c(c3)OCO4)ccc12 (stereo unspecified)	?	-9%
CN(Cc1ccco1)C(=O)CN1C(=O)NC2(CCCC2)C1=O	i	0%
CCc1ccc(NC(=O)CCn2ccnc2C)cc1	-6%	-3%
Cc1ccc(CNC(=O)Cc2nc3nc(C)cc(C)n3n2)cc1	-9%	-2%
COc1ccc(CNC(=O)c2cc(C(C)=O)c[nH]2)cc1	i	-16%
COc1ccc(S(=O)(=O)N(CCc2ccccc2)CC(=O)N/N=C/c2ccc3c(c2)OCO3)cc1	-18%	-22%
O=S(=O)(/N=C(/Sc1ccc(Cl)cc1)c1ccccc1)c1ccccc1	-16%	-16%
CN(C(=O)c1ccc(NC(=O)Cc2ccc(NC(=O)C3CCN(C(=O)C4CC4)CC3)cc2)cc1)C1CC1	-14%	-3%
Cn1c2ccccc2c2cnn(CC(=O)NCc3ccc(Cl)cc3)c(=O)c21	-2%	1%

Continued:
smiles	VACV mCherry inh	VACV Venus inh
COc1ccc(N2CCN(CCCn3ccc(NC(=O)OCc4ccccc4)nc3=O)CC2)cc1	-16%	-23%
C#CCSc1nc(-c2ccccc2)c2cc(Cl)ccc2n1	-6%	-6%
CC(C)c1onc(C(=O)Nc2cccc(O)c2)c1[N+](=O)[O-]	-8%	-15%
Oc1cc(O)c2c(c1)O[C@H](c1ccc(O)c(O)c1)[C@H](O)C2	?	-3%&-9%
C/C(=N\Nc1nc(N2CCOCC2)nc(N2CCOCC2)n1)c1cccs1	-1%	-4%
O=C(Nc1nnc([C@@H]2C[C@H](O)[C@@H](CO)O2)s1)NC1CCCCC1	10%	10%
CC1(C)Cc2c(sc3nc(SCC(=O)N4CCOCC4)nc(N)c23)CO1	nt	-14%
Cn1cc(/C=C/c2nc3ccccc3c(=O)n2-c2ccccc2)c2ccccc21	-15%	-5%
CC(Oc1ccccc1)C(=O)NC1C(=O)N2C1SC(C)(C)C2C(=O)O (stereo unspecified)	-7%	-11%
Cc1ccc(N2C(=O)/C(=C/c3cccnc3)SC2=S)cc1	-8%	-6%
CN1C[C@H]2CON(C)[C@H]2C[C@H]1c1cccc(N2CCOCC2)c1	i	-14%
CC1(c2ccc3c(c2)OCCCO3)NC(=O)N(CC(=O)NCCc2ccccc2)C1=O (stereo unspecified)	i	-9%

The results go on:
smiles	VACV mCherry inh	VACV Venus inh
Cc1ccc(N2C(=O)C(c3c(C)[nH]n(-c4ccccc4)c3=O)(C(F)(F)F)C3=C2CC(C)(C)CC3=O)cc1 (stereo unspecified)	i	-14%
Cc1c2cnn(CC(=O)NCCN3CCOCC3)c(=O)c2c(C)n1Cc1ccc(F)cc1	i	-4%
O=C(CCOc1ccccc1)Nc1ccnn1C1CCN(Cc2ccc(O)cc2)CC1	-29%	?
CC(C)(C)C(=O)c1c(N)[nH]c(C(=O)c2ccccc2)c1-c1ccccc1Br	-2%	-5%
COc1ccc2c(c1)cc(C)c1nnc(SCC(=O)N3CCN(C(=O)c4ccco4)CC3)n12	-14%	-2%
Nc1nc2ccc(NC(=O)c3ccco3)cc2s1	4%	-2%
COC(=O)[C@]12CCCCC=C1N(CCC1=CCCCC1)C(=O)[C@H](CC(=O)NCc1cccc(C(F)(F)F)c1)C2	-2%	-5%
COc1ccc(C(=O)c2c(NC(C)=O)sc3c2CCN(C(=O)OC(C)(C)C)C3)cc1	-26%	-4%
O=C(NC1CCCCC1)[C@H](O)[C@@H](O)C(=O)NC1CCCCC1	nt	-11%
Cc1ccc(S(=O)(=O)Nc2ccccc2C(=O)N2CCCC2)cc1	i	-10%
COc1cc2cc(Oc3ccc4ccc(=O)oc4c3)c(=O)oc2cc1O[C@@H]1O[C@H](CO)[C@@H](O)[C@H](O)[C@H]1O	i	-6%
Cc1ccc(Cn2ccsc2=NC(=O)COC(=O)C(C)C)cc1	-21%	2%

(list continues)
smiles	VACV mCherry inh	VACV Venus inh
CCOC(=O)N1CCN(Cc2nnc(-c3ccccc3C)o2)CC1	-3%	-5%
C/C(=N\Nc1nc(-c2ccccc2O)nc2ccccc12)c1ccccc1	-18%	-6%
COc1cc(CC(=O)Nc2cc(S(=O)(=O)N3CCOCC3)ccc2N2CCCC2)cc(OC)c1OC	-11%	?
Cc1ccccc1-c1cc(C(=O)NCc2ccco2)nn1CC1CC(c2cccc([N+](=O)[O-])c2)=NO1 (stereo unspecified)	-17%	-28%
COc1ccc(C(=O)c2ccc(Cl)cc2)cc1	nt	-12%
COCOc1ccc(/C=C2/Oc3cc(OCOC)cc(OCOC)c3C2=O)c(OCOC)c1	-15%	16%
CCc1ccc(NC(=O)c2ccc3nc(N)sc3c2)cc1	nt	13%
CCCS(=O)(=O)NC(=O)C1(C)CCCN(C(=O)C2(c3ccc(Cl)cc3)CCCC2)C1 (stereo unspecified)	1%	-8%
OCCC1CN(Cc2c(F)cccc2Cl)CCN1C1CCCCC1 (stereo unspecified)	-19%	8%
COc1ccc(N2CCN(C(=O)COC(=O)Cc3cccc(OC)c3)CC2)cc1	-1%	-19%
Cc1ccc(/C=N\NC(=O)Cc2noc3ccccc23)cc1	-13%	-25%
S=c1[nH]nc(CSCCOc2ccc(Cl)cc2Cl)o1	-11%	0%

Looked up by structure from above, 4 records:
smiles	VACV mCherry inh	VACV Venus inh
Oc1cc(O)c2c(c1)O[C@H](c1ccc(O)c(O)c1)[C@H](O)C2	?	-3%&-9%
CCOC(=O)N1CCN(Cc2nnc(-c3ccccc3C)o2)CC1	-3%	-5%
COc1ccc(C(=O)c2c(NC(C)=O)sc3c2CCN(C(=O)OC(C)(C)C)C3)cc1	-26%	-4%
COC(=O)[C@]12CCCCC=C1N(CCC1=CCCCC1)C(=O)[C@H](CC(=O)NCc1cccc(C(F)(F)F)c1)C2	-2%	-5%

(continued)
smiles	VACV mCherry inh	VACV Venus inh
CC(C)Cn1nc(NC(=O)c2cccc(Cl)c2)c2cc3ccccc3nc21	-11%	-14%
COC(=O)C[C@H]1C[C@H]2c3cc(NC(=O)Nc4ccc(F)cc4)ccc3O[C@H]2[C@@H](CO)O1	-9%	-6%
Cc1cc(C)cc(-n2ccnc(NCc3ccc(F)cc3)c2=O)c1	i	-8%
CSCC[C@H](NS(=O)(=O)c1ccc(C)cc1)C(=O)N1CCC(C(=O)N[C@@H](Cc2ccccc2)C(=O)O)CC1	-1%	-2%
O=S(CC(O)(c1ccccc1)c1ccccc1)CC(O)(c1ccccc1)c1ccccc1	-22%	?
CCc1cc2c(C)cc(C)cc2nc1SCC(=O)Nc1cc(C)on1	i	-17%
COc1ccc2c(c1)cc(CNc1ccc(OC)c(OC)c1)c(=O)n2CC(=O)Nc1ccccc1C	2%	10%
Cc1cc(NC(=O)CSc2nc3c(c(-c4cccnc4)c2C#N)CCC3)no1	-10%	-1%
O=[N+]([O-])c1ccc(N2CCCCC2)cc1	i	-5%
COCCC1CCCCN1C(=O)c1cc(COc2ccc(C)nc2)on1 (stereo unspecified)	-7%	-20%
CSc1nc(-c2ccccc2)cn1-c1ccc(NC(C)=O)cc1	-24%	-17%
C[C@H]1CN([C@@H](C)CO)C(=O)c2cc(NS(=O)(=O)c3ccc(F)cc3)ccc2O[C@H]1CN(C)S(=O)(=O)c1cn(C)cn1	i	-8%
O=C(NCc1ccco1)c1ccc2c(c1)N(Cc1ccccc1F)C(=O)c1ccccc1S2(=O)=O	-17%	-13%
COc1cc2c(cc1OC)CN(C(=O)c1ccc(OC)c([N+](=O)[O-])c1)CC2	i	-11%

Assay outcomes as filed in PubChem BioAssay.
